Screens deposited in PubChem BioAssay by National Center for Advancing Translational Sciences (NCATS).
LASV entry inh = qHTS for Inhibitors of binding or entry into cells for Lassa Virus | Lassa virus pseudotype entry inhibition, cell reporter; control for the full effect not named in the record | Potency, µM (top dose mostly 37.9 µM), for the others: at the highest dose activity change, negative = inhibition, most hits filed as inhibitors | 300,000 compounds, 1.2% hits | AID 540256, 2011; active means well fitted inhibition curve with a large enough effect; inconclusive means small, poorly fitted or top-dose-only effect, or effect the other way; inactive means flat fitted curve, though single readings scatter; tested in HEK293 cells; also: % is scaled to controls: 0 for no effect and ±100 for the full control effect; nearly all actives have a fitted effect of over 50% in size; luciferase read-out
RE007 growth inh = qHTS Assay for Inhibitors of the HIV-1 protein Vpr; 360,000 compounds, 0.21% hits; Potency, µM (top dose mostly 92.2 µM), for inactives: at the top dose activity change, negative = less growth; S. pombe RE007 Vpr strain, BacTiter-Glo ATP luminescence, 24 h; control for the full effect not named in the record; AID 651644, 2012; active = well fitted falling curve with a large enough effect; inconclusive = small, poorly fitted or top-dose-only effect; inactive = no such curve, though single readings can be large or run the other way;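 also: % is scaled to controls: 0 for no effect and ±100 for the full control effect; nearly all actives have a fitted effect of over 50% in size; the assay follows cell death caused by Vpr and the record does not say whether a fall means rescue or toxicity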
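Fission yeast RE007 carrying one integrated HIV-1 vpr copy, seeded at OD 0.01 in PMG+AL medium with 23 nL pinned compound. Grown 24 h at 30 degrees; viability read by BacTiter-Glo luminescence after 5 min.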
NS1 inh = qHTS Assay for Inhibitors of Influenza NS1 Protein Function. S. cerevisiae slowed by influenza A NS1, growth recovery by OD600. Potency, µM (top dose mostly 46.1 µM), for the others: at the highest dose activity, positive = more growth. 270,000 compounds, 0.4% hits. AID 2326, 2010; also: actives are rising curves; nearly all actives have a fitted effect of over 50% in size
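Compounds were scored for reversing the slow growth caused by influenza A NS1 in S. cerevisiae, measured by optical density at 600 nm. Assay medium contained 2% galactose at pH 6.0; NS1-free yeast of the same strain were the positive control.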
Cruzain inh Det = qHTS Assay for Promiscuous and Specific Inhibitors of Cruzain (with detergent); Potency, µM, for inactives: max response, negative = inhibition, usual class: inhibitors; purified cruzain, Z-FR-AMC fluorescence, 0.01% Triton; 200,000 compounds, 0.43% hits; active = well fitted curve in the direction sought with a large enough effect; inconclusive = small, poorly fitted or top-dose-only effect, or another doubt; inactive = no such curve, though single readings can be large; an effect the other way counts as inactive or inconclusive;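 also: plate controls were neutral wells for no effect and buffer without enzyme for full effect; nearly all actives have a fitted effect of over 40% in size; top concentration of the series not given in the record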
Target sequence (P25779 123-467 limits assumed): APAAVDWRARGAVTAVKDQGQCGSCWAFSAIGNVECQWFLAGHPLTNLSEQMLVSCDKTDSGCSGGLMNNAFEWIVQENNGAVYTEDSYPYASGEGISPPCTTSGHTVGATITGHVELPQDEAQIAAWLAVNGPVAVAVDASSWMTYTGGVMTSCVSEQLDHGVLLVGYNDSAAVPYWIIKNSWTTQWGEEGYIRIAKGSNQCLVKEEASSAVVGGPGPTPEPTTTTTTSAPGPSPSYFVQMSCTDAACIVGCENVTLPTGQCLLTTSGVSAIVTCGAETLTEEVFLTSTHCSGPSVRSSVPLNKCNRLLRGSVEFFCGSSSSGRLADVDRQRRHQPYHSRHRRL
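Cruzain (1.5 nM) preincubated 15 min at RT with compound in 100 mM sodium acetate pH 5.5, 5 mM DTT, 0.01% Triton X-100. Reaction started with 2 uM Z-FR-AMC; AMC fluorescence (ex 360/em 450 nm) change over 60 s gave rate.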
Cruzain noTriton = qHTS Assay for Promiscuous and Specific Inhibitors of Cruzain (without detergent). Cruzipain (Trypanosoma cruzi), P25779. purified cruzain, Z-FR-AMC fluorescence, no detergent. Potency, µM, inactives show max response, negative = inhibition, most hits filed as inhibitors. 200,000 compounds, 2.3% hits. AID 1476, 2009; active = well fitted curve in the direction sought with a large enough effect; inconclusive = small, poorly fitted or top-dose-only effect, or another doubt; inactive = no such curve, though single readings can be large; an effect the other way counts as inactive or inconclusive;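 also: plate controls were enzyme without inhibitor for no effect and buffer without enzyme for full effect; nearly all actives have a fitted effect of over 40% in size; top concentration of the series not given in the record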
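Purified cruzain at 1.5 nM, pre-incubated 15 min with compound at room temperature in 100 mM sodium acetate pH 5.5, 5 mM DTT, 0.00005% Triton X-100. Reaction started with 2 uM Z-FR-AMC; AMC fluorescence increase over 60 s gives rate.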
SARS PLP yeast = qHTS of Yeast-based Assay for SARS-CoV PLP | 330,000 compounds, 0.19% hits | S. cerevisiae expressing SARS-CoV PLpro, growth rescue; control for the full effect not named in the record | Potency, µM (titrated, usually from 32.9 µM), without a hit: at the top dose activity, positive = growth rescue; also: 0% is about no effect; nearly all actives have a fitted effect of over 55% in size; growth read by luminescence after 48 h
Marburg entry inh = qHTS for inhibitors of binding or entry into cells for Marburg Virus; Marburg virus pseudotyped entry inhibition, cell reporter; control for the full effect not named in the record; about a third of the inactives were read at about 46 µM; Potency, µM (series often up to 37.8 µM), without a hit: top-dose activity change, negative = inhibition, usual class: inhibitors; 300,000 compounds, 1.8% hits; active = well fitted inhibition curve with a large enough effect; inconclusive = small, poorly fitted or top-dose-only effect, or effect the other way; inactive = flat fitted curve, though single readings scatter; tested in HEK293 cells; about a fifth of its hits are not listed in these tables; also: % is scaled to controls: 0 for no effect and ±100 for the full control effect; luciferase read-out
StopGo reporter = High Throughput Screening for Foot and Mouth Disease Virus Antivirals | AID 1159524, 2015 | Potency, µM (top dose mostly 57.9 µM), without a hit: top-dose signal change, negative = less light | 410,000 compounds, 1.2% hits | human cells with a luciferase reporter of 2A StopGo recoding; control for the full effect not named in the record; active = well fitted falling curve with a large enough effect; inconclusive = small, poorly fitted or top-dose-only effect; inactive = no such curve, though single readings can be large or run the other way; tested in HEK293T cells; also: % is scaled to controls: 0 for no effect and ±100 for the full control effect; nearly all actives have a fitted effect of over 45% in size; luciferase light after 4 h
Active calls of the source: *; ? = inconclusive; . = no result given; & = joins results of further samples; [ ] = remark or other dose. Unless noted, calls follow the shape of the dose curve; as a rule, active means well fitted rising curve with a large enough effect; inconclusive means small, poorly fitted or top-dose-only effect; inactive means no such curve, though single readings can be large or run the other way. Potency is read from the fitted curve at half-maximal effect. The order is random; overall some 4.5% were active at least once.

SMILES	LASV entry inh	RE007 growth inh	NS1 inh	Cruzain inh Det	Cruzain noTriton	SARS PLP yeast	Marburg entry inh	StopGo reporter
O=C(O)CN1C(=O)c2cccc3c(Br)ccc1c23	-1%[46.1 µM]	10%	14%	.	.	1%	-1%[46.1 µM]	-1%
COc1ccc(S(=O)(=O)N(CC(=O)Nc2ccc(F)c(Cl)c2)c2ccc(C)cc2)cc1OC	?	.	.	-5.6%	-4%	.	.	-18%
COc1ccc(S(=O)(=O)NCC2CCCN(CC(C)(C)C)C2)cc1 (stereo not given)	.	2%	4%	.	.	0%	-25%[46.1 µM]	-4%
CC(NC(=O)OC(C)(C)C)C(=O)N1CCCC1C(=O)NC(Cc1ccccc1)C(N)=O (stereo not given)	9%	-5%	3%	1.4%	-4%	-5%	-1%	8%
CCN(c1ccc(OC)cc1)S(=O)(=O)c1ccc(-c2ccc(=O)[nH]n2)o1	.	6%	3%	.	.	4%	.	-26%
O=C(Nc1ccc(Cl)cc1Cl)C1=Cc2ccccc2OC1	13µM*	-12%	-6%	-1.8%	-1%	-1%	?	-32%
CN(c1ccc(C(=O)N2CCCCCC2)cc1)S(=O)(=O)c1ccc(Cl)cc1	?	3%	-26%	.	.	-3%	-28%	?
CCN(CC(=O)NCc1cccs1)C(=O)c1ccc(NS(=O)(=O)c2ccc(F)cc2)cc1	-4%	-26%	.	.	.	0%	0%	-9%
COc1ccc(S(=O)(=O)N2CCCC2)cc1OC	16%[46.1 µM]	30%	1%	.	.	5%	10%[46.1 µM]	-11%
CCc1nnc(SCc2cc(C)ccc2C)c2cc3sc(C)cc3n12	-5%[46.1 µM]	.	.	-4.4%	12%	.	.	-12%
Cc1cccc(NC(=O)CCNS(=O)(=O)c2cc(Br)cnc2N)c1C	-2%[46.1 µM]	-8%	0%	.	.	-1%	4%[46.1 µM]	16%
C/C(=N\NC(=O)c1ccc(Cn2cc(Br)cn2)o1)c1cccc(NC(=O)C(C)C)c1	?	-13%	4%	-5.2%	28%	5%	?	-1%
CNC(=S)N(C1=NCC(c2ccc([N+](=O)[O-])cc2)S1)c1ccccc1 (stereo not given)	-2%[46.1 µM]	2%	-2%	.	.	15%	-24%[46.1 µM]	32%[activator]
O=C(Nc1ccccc1F)c1cc(Cl)sc1Cl	8%	64%	-4%	.	.	-2%	21%	47%[activator]
Cc1cc(NC(=O)c2ccc(S(=O)(=O)N(C)C)cc2)n(-c2ccccn2)n1	11%	5%	-5%	0.9%	-8%	2%	3%	10%
O=c1[nH]c(SCc2ccccc2)nc2[nH]ncc12	-10%	19%	.	.	.	1%	2%[46.1 µM]	27%
O=C(Nc1nnc(-c2ccc3c(c2)CCCC3)o1)c1c(F)cccc1F	-17%	-3%	.	.	.	-11%	20%[46.1 µM]	-3%
COc1cc(OC)cc(-c2nc(-c3ccccc3OC)no2)c1	2%	14%	4%	-1.5%	?	-16%	31%	-5%
Cc1cc(C)cc(NC(=O)N2CCCN(c3c(Cl)cncc3Cl)CC2)c1	19%[46.1 µM]	-4%	3%	.	.	0%	-3%[46.1 µM]	-19%
COc1cc(-c2noc(-c3ccc(NC4CCCCC4)c([N+](=O)[O-])c3)n2)cc(OC)c1OC	11%[46.1 µM]	.	.	-12%	?	.	-12%[46.1 µM]	2%
CCN(CCCNC(=O)CN1N=C(c2ccccc2)CCC1=O)c1cccc(C)c1	3%[46.1 µM]	.	.	-1.5%	7%	.	.	-28%
Cc1nc2scc(-c3cccs3)c2c(=O)[nH]1	34%[14.3 µM]	-2%	-65%	2.7%	9%	-13%	6%	12%
Cc1cc(C(=O)N(NC(=O)C(C)C)c2ccccc2)cs1	-16%[46.1 µM]	-2%	.	.	.	3%	8%[46.1 µM]	7%
COc1ccc(-n2ccnc2SCC(=O)NCc2ccc3c(c2)OCO3)cc1	-14%	14%	-51%	-2.2%	-2%	-2%	0%	0%
CC(=O)c1cc(C(C)=O)c(C)[n+](C)c1C	14%	16%	1%	.	.	1%	14%[14.2 µM]	-7%

Following part
SMILES	LASV entry inh	RE007 growth inh	NS1 inh	Cruzain inh Det	Cruzain noTriton	SARS PLP yeast	Marburg entry inh	StopGo reporter
COn1c(=S)[nH]c2ccccc2c1=O	41%[14.3 µM]	6%	3%	2.8%	-2%	4%	-14%&-14%	41%[activator]
O=C(Nc1ccccc1C(=O)N1CCCCC1)c1cccc(S(=O)(=O)N2CCOCC2)c1	1%	0%	2%	-0.5%	10%	1%	2%	-5%
CN(CCOc1ccc(Cl)cc1)CC(=O)Nc1ccc(OC(F)F)cc1	.	3%	-8%	.	.	-2%	.	-15%
Cc1nc2cc(NS(=O)(=O)c3c(C)c(C)cc(C)c3C)ccc2s1	-7%	2%	-7%	-14%	20%	-76%	-27%	-22%
COC(=O)c1cc(OC)nc(OC)c1	.	2%	0%	.	.	1%	.	-15%
O=C(C[n+]1ccc(-c2nnc3n2CCC3)cc1)c1ccc(Cl)cc1	3%	-4%	-4%	-3.4%	-1%	12%	-7%	-2%
O=C1CCC(CCC(=O)N2CCCC(C(=O)c3cccc(C(F)(F)F)c3)C2)=NN1 (stereo not given)	7%[46.1 µM]	3%	0%	.	.	0%	-9%[46.1 µM]	13%
CC(NC(=O)Nc1ccc(Cl)c(Cl)c1)C(c1ccccc1)N1CCOCC1 (stereo not given)	?	-3%	-31%	-9.4%	-6%	-109%	?	-18%
O=C(CSC1c2ccccc2-c2ccccc21)N/N=C/c1ccc(C(=O)O)cc1	-2%[46.1 µM]	2%	20%	.	.	2%	-15%[46.1 µM]	-17%
CCOC(=O)N/C(N)=N/c1nc2ccccc2s1	?	-17%[3.69 µM]	-12%	-9.9%	-6%	-9%	-18%	-28%
CCN1C(=O)/C(=C/N(C)c2ccccc2)OC1=S	11%	-10%	-32%	-12%	-19%	-4%	4%	37%[activator]
Cc1ccc(C(=O)OCC(=O)c2c[nH]c3ccccc23)cc1S(=O)(=O)N1CCOCC1	11%	-9%	.	.	.	-4%	-7%[46.1 µM]	-18%
Cn1cnnc1SCCNS(=O)(=O)c1ccccc1	0%	25%	6%	-0.9%	-3%	1%	2%	-21%
COc1ccc(S(=O)(=O)Nc2ccccc2)cc1OC	-13%	23%	3%	2.5%	-6%	-3%	-6%[46.1 µM]	92%[activator]
O=S(=O)(NC1CCSc2ccccc21)c1ccc(Cl)nc1 (stereo not given)	.	25%	-9%	.	.	-3%	-12%[46.1 µM]	15%
Cc1cc(C)c2cc(CN(Cc3nnnn3C3CCCCC3)CC3CCCO3)c(=O)[nH]c2c1 (stereo not given)	-19%	-14%	-16%	-5.7%	?	1%	?	.
O=C(CSc1ccc2nnc(-c3ccccn3)n2n1)Nc1ccc(F)cc1	.	-7%	0%	.	.	?	.	-11%
Cc1ccc(C(=O)N/C(=C/C=C/c2ccccc2)C(=O)NCc2ccco2)cc1	-4%	-16%	16%	-2.3%	4%	-19%	-14%	50%[activator]
O=C(O)c1cc([N+](=O)[O-])cc2c1C=Cc1ccccc1O2	0%[46.1 µM]	-16%	4%	.	.	0%	-1%[46.1 µM]	11%
Cc1cc(C(=O)NCc2ccccc2)no1	-7%	-3%	-1%	5.6%	0%	1%	16%	32%[activator]
COc1ccc(C2CC(=O)N(Cc3ccc(F)cc3)c3ccccc3S2)cc1OC (stereo not given)	.	.	.	-5.3%	?	.	0%[46.1 µM]	40µM*
COc1ccc(C2CC(=O)N3CN(Cc4ccco4)CSC3=C2C#N)cc1 (stereo not given)	9%	-7%	-45%	0.4%	-9%	3%	-5%	-5%
Cc1ccc([N+](=O)[O-])cc1S(=O)(=O)N1CCCCC1C(=O)O (stereo not given)	8%	-9%	.	.	.	0%	5%[46.1 µM]	2%
Cc1cccc(CSc2ncccc2C(=O)O)c1	25%[46.1 µM]	2%	-19%	0.3%&-1.7%	4%&13%	3%	?	14%&41%
COc1ccc2[nH]cc(CCNC(=O)Nc3ccccc3)c2c1	-9%[46.1 µM]	2%	8%	-7.7%	3%	-1%	?	-10%&-18%

The list goes on.
SMILES	LASV entry inh	RE007 growth inh	NS1 inh	Cruzain inh Det	Cruzain noTriton	SARS PLP yeast	Marburg entry inh	StopGo reporter
COc1ccc(S(=O)(=O)NCC(=O)O)cc1C(=O)NC1CCCCC1	10%	-14%	23%	2.7%	-10%	-2%	-2%	-7%
CCSc1nc(-c2ccccc2)c(C#N)c(=O)[nH]1	12%	8%	1%	-0.8%	-5%	2%	16%	.
COc1ccc2nc3c(cc2c1)c(NC(=O)CC(C)C)nn3CC(C)C	.	15%	0%	.	.	-3%	.	14%
O=S(=O)(c1cnc(Cl)c(Cl)c1)N1CCN(c2ncccn2)CC1	10%	13%	3%	.	.	-2%	-13%	-10%
C=CCSc1nc2c(c(=O)[nH]c(=O)n2C)n1C(C)C	0%	-6%	-10%	2.0%	3%	-6%	-10%[46.1 µM]	-16%
CCOC(=O)Cn1nc(-c2ccc(F)cc2)cc(Cc2ccccc2)c1=O	.	1%	-7%	.	.	-3%	.	-2%
Cc1ccc(CN(Cc2ccco2)C(=O)c2ccc(Cl)cc2Cl)cc1	-7%[46.1 µM]	.	.	-9.5%	-13%	.	11%[46.1 µM]	-13%
CCC(=O)N1CCc2cc(Br)cc(S(=O)(=O)CCC(=O)N3CCN(c4cccc(C)c4)C(C)C3)c21 (stereo not given)	-21%[46.1 µM]	.	.	-1.7%	?	.	0%[46.1 µM]	-8%
CCOC(=O)N1CCN(c2c(NCc3ccccn3)c(=O)c2=O)CC1	.	14%	4%	0.5%	-8%	-3%	.	2%
COc1ccccc1-c1c(C)nn2c(N3CCC(C)CC3)cc(C)nc12	-11%[46.1 µM]	-21%	-1%	.	.	0%	?	25µM*
O=C1c2nccnc2C(=O)N1c1ccc(C(F)(F)F)cc1	.	15%	.	.	.	-5%	12%[46.1 µM]	-7%
Cn1c(=O)c2c(ncn2CC(=O)N2CCCc3ccccc32)n(C)c1=O	1%	-7%	3%	1.6%	-5%	1%	6%[46.1 µM]	-12%
CCOc1ccc(S(=O)(=O)N2CCC(C(=O)NCCc3ccc(OC)c(OC)c3)CC2)cc1	.	11%	0%	.	.	-1%	.	14%
CCOc1ccc2nc(COC(=O)c3cccc([N+](=O)[O-])c3)c(C(C)=O)[n+]([O-])c2c1	17%[46.1 µM]	133%	?	.	.	-1%	?	-1%
